STK33 kinase inh – inhibitors of purified STK33 kinase, primary screen, biochemical, ADP-Glo luminescence, homogeneous, cell-free. Serine/threonine-protein kinase 33 (Homo sapiens), Q9BYT3. MBP phosphorylation. inhibition, % at 10 µM. 320,000 compounds, 0.073% hits. AID 2661, 2010;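 active = inhibition at or above 25%, using the most active replicate where run in duplicate; inactive = inhibition below 25%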
Target sequence (Q9BYT3 whole entry, looked up): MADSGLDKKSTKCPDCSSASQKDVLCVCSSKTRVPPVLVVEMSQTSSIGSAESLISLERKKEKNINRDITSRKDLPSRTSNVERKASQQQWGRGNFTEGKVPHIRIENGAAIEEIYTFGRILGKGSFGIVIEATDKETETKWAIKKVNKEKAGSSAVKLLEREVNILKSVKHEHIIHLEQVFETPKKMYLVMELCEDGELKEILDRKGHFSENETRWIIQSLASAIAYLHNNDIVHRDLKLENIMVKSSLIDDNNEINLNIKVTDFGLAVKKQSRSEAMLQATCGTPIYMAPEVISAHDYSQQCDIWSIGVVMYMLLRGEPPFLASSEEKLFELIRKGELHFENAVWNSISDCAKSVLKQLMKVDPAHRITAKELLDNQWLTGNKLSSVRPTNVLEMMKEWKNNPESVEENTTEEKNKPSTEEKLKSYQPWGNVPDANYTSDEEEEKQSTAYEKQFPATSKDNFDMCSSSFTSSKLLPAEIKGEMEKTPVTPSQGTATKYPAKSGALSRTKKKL
Starred values were filed as active, the others as inactive. Some of the compounds tested, and most or all hits are left out here.

SMILES	STK33 kinase inh
Nc1nc(SCC(=O)Nc2ccc(OCc3ccccc3)cc2)n[nH]1	0.1
O=C(CCC(=O)N1CCN(S(=O)(=O)c2ccccc2)CC1)c1cccs1	-0.6
CCOC(=O)c1[nH]c2ccccc2c1NC(=O)NC1CCCCC1	-1.0
CCOC(=O)c1[nH]ncc1CN1CCCC(C(=O)c2ccc(OC)cc2C)C1 (stereo unspecified)	4.0
NC(=O)c1cccnc1Nc1cccc(F)c1	1.7
Nc1ccc(C2(c3ccc(N)cc3)C(=O)Nc3ccccc32)cc1	-1.4
Cc1ccc(/C(O)=C2\C(=O)C(=O)N(C)C2c2cccc([N+](=O)[O-])c2)cc1 (stereo unspecified)	-1.1
COc1cc(NC(=O)CSc2nc3cc(C)ccc3cc2C)c(C(=O)O)cc1OC	-0.2
COc1ccc(/C=C/c2cccc[n+]2C)c(O)c1	-0.5
CCCc1ccc2oc(C(=O)N(C)Cc3ccn[nH]3)c(C)c2c1	-0.9
Cc1ccc(NC(=O)CC2S/C(=N/c3nccs3)N(C)C2=O)c(C)c1 (stereo unspecified)	0.7
CN1CCC(NC(=O)c2cccc(Oc3ccccc3)c2)CC1	-2.0
N/C(=N\NC(=O)c1cccs1)c1cc2ccccc2oc1=O	-0.4
CC(=O)c1cccc(CN2CCN(C3CCCCC3)C(CCO)C2)c1 (stereo unspecified)	0.1
CCCCNc1nc(Cl)nc(Nc2ccc(C)cc2)n1	-0.3
O=C1CSC2=NCN(c3ccc4c(c3)OCO4)CN12	-0.4
Cc1ncc(CO)c2cc(C(N)=O)c(=Nc3ccccc3)oc12	-0.8
O=C(Cc1ccc(Cl)cc1)N1CCN(C(=O)c2ccco2)CC1	-0.1
O=C(Nc1ccc2c(c1)C(=O)OC2)c1ccc(C(F)(F)F)cc1	-0.3
CC(=O)C1=C(O)C(=O)N(c2ccc(Br)cc2)C1c1cccc([N+](=O)[O-])c1 (stereo unspecified)	-0.2
O=C1CCc2cc(NS(=O)(=O)c3ccc(Br)cc3)cc3c2N1CC3	2.3
COc1cccc(C(=O)Nc2cccc(OC(C)=O)c2)c1	0.9
O=C(c1ccncc1)N1CCN(S(=O)(=O)c2ccc3ccccc3c2)CC1	-4.1
CCC(=O)N1CCCC(C(=O)c2ccc(-c3ccccc3)cc2)C1 (stereo unspecified)	-0.5
Cc1cc(-n2c(SCC(=O)NCc3cccs3)nc3n[nH]c(C)c3c2=N)ccc1Cl	-0.8
CCn1c(/C=C/c2ccccc2F)nc2ccccc2c1=O	-0.8
Cc1ccc(-n2nnnc2SCC(=O)Nc2cccc(NC(=O)c3ccco3)c2)cc1C	-1.3
CC1Cc2ccccc2N1C(=O)c1ccc2c(c1)OCO2 (stereo unspecified)	-0.7
CN(C)CCCNc1oc(-c2ccc(Cl)cc2)nc1C#N	-0.1
Cc1ccccc1N1CCN(C2CCCN(C(=O)c3cc(C(C)C)[nH]n3)C2)CC1 (stereo unspecified)	-1.6
O=C1CC[C@@H](CN(Cc2ccccn2)Cc2nc(Cc3cccc(C(F)(F)F)c3)no2)N1	-0.1
CC(C)c1ccccc1NC(=S)NCc1ccccc1F	-0.9
C/C(CC(=O)Nc1ccccn1)=N\NC(=O)Cc1cccc2ccccc12	-0.5
O=C(c1cc(-c2ccncc2)nc2ccccc12)N1CCN(S(=O)(=O)/C=C/c2ccccc2)CC1	-1.3
CC(=O)C1=C(C)NC(=O)CC1c1ccc(F)cc1 (stereo unspecified)	0.2
CCc1nc2ccccc2c(C(=O)Nc2ccc(F)cc2)c1C	-1.3
Cc1ccc(C)c(S(=O)(=O)N2CCN(C(=O)c3cccnc3)CC2)c1	-0.6
O=C(NC1CCCCC1)N1CCN(c2ccc([N+](=O)[O-])cc2)CC1	-1.7
FC(F)(F)c1cc(C(F)(F)F)c2ccc(N3CCN(c4ccccc4)CC3)nc2n1	-2.4
CC(=O)N1c2ccc(S(=O)(=O)N3CCC(C(=O)NC4CCCCC4C)CC3)cc2CC1C (stereo unspecified)	-0.9
O=C(NCCO)c1ccc(Oc2ccc(C(F)(F)F)cc2[N+](=O)[O-])cc1	0.0
O=C(NCCCN1CCOCC1)/C(=C/c1cccnc1)NC(=O)c1ccccc1	-1.2
Cc1c(C(=O)N2CCOCC2)sc(NC(=O)c2ccccc2F)c1C#N	0.0
CC1CCC(NC(=O)C(Cc2ccccc2)n2cccc2)CC1 (stereo unspecified)	0.7
COc1ccc(-c2cc(C(F)(F)F)n3nc(C(=O)Nc4cc(C)on4)cc3n2)cc1OC	-0.1
CCOC(=O)C1CCN(C/C=C/c2ccccc2)CC1	-0.5
O=C(CCNS(=O)(=O)c1ccccc1C(F)(F)F)N1CCN(C(c2ccccc2)c2ccccc2)CC1	0.0
CC(=O)Nc1nc(-c2ccccc2)nc(C)c1C(C)=O	-0.2
CC(C)NC(=O)c1cc2c(C(F)(F)F)nn(C)c2s1	6.2
Cc1ccc(C(=O)Nc2ccccc2N2CCN(C(=O)C(C)C)CC2)cc1C	-1.0
(list continues)
SMILES	STK33 kinase inh
COc1ccc(Br)cc1/C=C/C(=O)Nc1c(C)cccc1C	-4.2
O=C(Nc1ccc(NC(=O)C2CC2)nc1)c1cnccn1	-0.7
Cc1ccc(C(C(=O)NC2CCCC2)N(C(=O)CNC(=O)c2cccs2)c2cccnc2)o1 (stereo unspecified)	0.0
CC(=O)Nc1ccc(S(=O)(=O)NC(C)(C#N)C2CC2)cc1 (stereo unspecified)	1.5
COC(=O)C1=C(C)N(c2ccccc2)/C(=C/c2ccco2)C1=O	-0.7
[N-]=[N+]=CC(=O)C(O)(c1ccccc1)C(Cl)c1ccccc1 (stereo unspecified)	-0.6
NS(=O)(=O)c1ccc(NC(=O)CN2C(=O)CCC2=O)cc1	-0.2
C/C(=C\C(=O)c1ccc(Br)cc1)NCc1ccc2c(c1)OCO2	-0.6
Cc1cnc(NC(=O)c2cccc(S(=O)(=O)N3CC(C)OC(C)C3)c2)s1 (stereo unspecified)	3.1
COC(=O)c1ccc(C2C(C(=O)c3cc4ccccc4o3)=C(O)C(=O)N2c2cc(C)on2)cc1 (stereo unspecified)	1.2
COCCN(C(=O)COC(=O)c1ccccc1Cc1ccccc1)c1c(N)n(Cc2ccccc2)c(=O)[nH]c1=O	2.5
CCn1c(CC(=O)Nc2ccc(Cl)cc2)nnc1SCC(=O)N1CCOCC1	-2.3
O=C(CN1C(=O)COc2ccccc21)NCCCN1CCc2ccccc2C1	0.8
Cc1cc(C)nc(/N=C(\N)Nc2cccc([N+](=O)[O-])c2)n1	-0.5
O=C(NNC(=O)c1ccc(Br)cc1)c1ccncc1	-0.3
CCn1c(CNc2ccccc2Cl)nnc1SCCN1CCCCC1	-0.1
CN(Cc1c(C(=O)N2CCCCCCC2)nc2ccc(Cl)cn12)C1CCOC1 (stereo unspecified)	-0.4
CC1CCC(=O)N(CCOc2ccccc2)CC1 (stereo unspecified)	0.1
CC1CCCN(C(=O)/C(=C/c2ccco2)NC(=O)c2ccccc2)C1 (stereo unspecified)	-0.1
Cc1ccc(N)cc1S(=O)(=O)N(C)C	-0.8
COC(=O)c1ccc(S(=O)(=O)NNC(=O)COc2ccc(C)cc2)cc1	-1.3
Cc1ccc(NC(=O)CCc2nc3ccccc3[nH]2)cc1C	-1.0
C/C(=N\NC(=S)NCc1ccccc1)c1ccccc1F	-0.8
CC(=O)Nc1cccc(NC(=O)C(=O)NCC(c2ccco2)N2CCc3ccccc3C2)c1 (stereo unspecified)	0.5
COc1ccc(OCC(=O)OCC(=O)NCc2ccco2)cc1	-0.1
C1CCCCCC(=NNc2nn[nH]n2)CCCCC1	2.1
Cc1nnc(SCc2ccccn2)n(N)c1=O	-1.4
COC(=O)c1ccccc1NS(=O)(=O)c1ccc2c(c1)oc(=O)n2C	-1.4
COc1ccccc1/C=C/C(=O)Nc1ccc(S(=O)(=O)Nc2cc(C)on2)cc1	-1.1
Brc1cnc(N2CCCC2)nc1N1CCOCC1	-0.4

Arranged by molecular weight (lowest first): part of the list above
SMILES	STK33 kinase inh
CC1CCC(=O)N(CCOc2ccccc2)CC1 (stereo unspecified)	0.1
C1CCCCCC(=NNc2nn[nH]n2)CCCCC1	2.1
Cc1cc(C)nc(/N=C(\N)Nc2cccc([N+](=O)[O-])c2)n1	-0.5
Cc1ccc(NC(=O)CCc2nc3ccccc3[nH]2)cc1C	-1.0
C/C(=N\NC(=S)NCc1ccccc1)c1ccccc1F	-0.8
Brc1cnc(N2CCCC2)nc1N1CCOCC1	-0.4
COc1ccc(OCC(=O)OCC(=O)NCc2ccco2)cc1	-0.1
O=C(NNC(=O)c1ccc(Br)cc1)c1ccncc1	-0.3
CC1CCCN(C(=O)/C(=C/c2ccco2)NC(=O)c2ccccc2)C1 (stereo unspecified)	-0.1
COC(=O)c1ccccc1NS(=O)(=O)c1ccc2c(c1)oc(=O)n2C	-1.4
C/C(=C\C(=O)c1ccc(Br)cc1)NCc1ccc2c(c1)OCO2	-0.6
COC(=O)c1ccc(S(=O)(=O)NNC(=O)COc2ccc(C)cc2)cc1	-1.3
O=C(CN1C(=O)COc2ccccc21)NCCCN1CCc2ccccc2C1	0.8
CCn1c(CNc2ccccc2Cl)nnc1SCCN1CCCCC1	-0.1
CN(Cc1c(C(=O)N2CCCCCCC2)nc2ccc(Cl)cn12)C1CCOC1 (stereo unspecified)	-0.4
COc1ccccc1/C=C/C(=O)Nc1ccc(S(=O)(=O)Nc2cc(C)on2)cc1	-1.1
CCn1c(CC(=O)Nc2ccc(Cl)cc2)nnc1SCC(=O)N1CCOCC1	-2.3
CC(=O)Nc1cccc(NC(=O)C(=O)NCC(c2ccco2)N2CCc3ccccc3C2)c1 (stereo unspecified)	0.5
COC(=O)c1ccc(C2C(C(=O)c3cc4ccccc4o3)=C(O)C(=O)N2c2cc(C)on2)cc1 (stereo unspecified)	1.2
COCCN(C(=O)COC(=O)c1ccccc1Cc1ccccc1)c1c(N)n(Cc2ccccc2)c(=O)[nH]c1=O	2.5

The listing continues:
SMILES	STK33 kinase inh
Cc1ccccc1Cn1cc(/C=N/n2cnnc2)c2ccccc21	-2.2
OC(c1ccccc1)(c1ccccc1)c1ncc[nH]1	0.7
CCCCC1(C)OC(=O)C(=Cc2ccc(N(CC)CC)cc2)C(=O)O1 (stereo unspecified)	-0.3
C(=N\Nc1nc(Nc2ccccc2)nc(Nc2ccccc2)n1)/c1cccnc1	0.1
CCOC(=O)C1=C(CC)OC(N)=C(C#N)C1c1cc(OC)ccc1OC (stereo unspecified)	-1.4
COc1ccc(CCn2c(-c3ccco3)nc3ccccc3c2=O)cc1OC	2.8
O=C(OCC(=O)N(Cc1ccccc1)Cc1ccccc1)c1ccccc1NCCO	-0.6
CCOc1ccccc1NC(=S)N1CCCc2ccccc21	1.5
Cc1cccc(N/C(N)=N/c2nc(C)cc(=O)[nH]2)c1	0.7
COc1ccc(S(=O)(=O)N(CCCN2CCCC2=O)Cc2cc3c(C)ccc(C)c3[nH]c2=O)cc1	5.6
COCCn1c(SCC(=O)NC2CCCC2)nnc1-c1ccncc1	-1.9
COc1ccccc1-c1cc(C(F)(F)F)nc(N2CCCC2)n1	-1.6
COc1cccc(C(=O)NC2CCCc3c2cnn3-c2ccc(C)c(C)c2)c1OC (stereo unspecified)	-0.7
COc1ccc(NC(=O)CSc2nnc(CNC(=O)c3cccs3)o2)c(OC)c1	-0.3
COc1ccccc1NC(=O)CCc1nc2sc3c(c2c(=O)[nH]1)CCCC3	-2.6
CC(NC(=O)c1ccc(NS(C)(=O)=O)cc1)c1ccccc1 (stereo unspecified)	2.2
Cc1cccc(OCC(=O)NC2CC(C)(C)NC(C)(C)C2)c1	-1.0
Cc1ccc(S(=O)(=O)CC(=O)Nc2ccc(F)c(F)c2F)cc1	-1.2
Cc1c(C(=O)Nc2ccc(F)cc2)nnn1-c1cccc(C(F)(F)F)c1	-0.6
COc1ccc(N2CCN(c3oc(COc4ccc(Cl)cc4Cl)nc3C#N)CC2)cc1	-0.1
COc1ccccc1CN1CC(C(=O)N2CCC(C(=O)c3ccccc3)CC2)CCC1=O (stereo unspecified)	2.4
O=C(COC(=O)c1cccnc1)Nc1ccc2c(c1)OCO2	-2.4
Cc1noc(C)c1CSc1nc2ccccc2nc1NS(=O)(=O)c1ccc(Cl)cc1	0.4
O=S(=O)(c1ccc(NCc2ccc(F)cc2)nc1)N1CCCC1	-1.2
Cn1c(=O)c(S(=O)C2CCCCC2)c(O)c2ccccc21 (stereo unspecified)	-0.1
C/C(=N\O)c1c(C)c2ccccc2n1C	0.2
CCOc1ccc(C(=O)NCC2CCCO2)cc1OCC (stereo unspecified)	-2.3
Cc1ccc(NC(=O)CN(C)C(=O)COc2cc(F)ccc2[N+](=O)[O-])cc1	-1.0
CC(C)(C)NC(=O)CSc1nnc(-c2ccco2)n1Cc1ccco1	5.1
CC(C)Oc1cccc(C(=O)NC(=S)N2CCN(c3ccc(C(F)(F)F)cc3[N+](=O)[O-])CC2)c1	-0.4
O=C(OC(C(=O)NCC1CCCO1)c1ccc(F)cc1)c1ccco1 (stereo unspecified)	-1.8
Cc1cc(S(=O)(=O)NC2CCCCC2)ccc1OCC(=O)NCC1CCCO1 (stereo unspecified)	-1.3
C/C=C/c1ccc(OCCCNC2CCCC2)c(OC)c1	0.0
Cc1nc2cc(OCc3cc(C(=O)NC(C)c4cn(C)nc4C)no3)ccc2s1 (stereo unspecified)	-1.4
Cc1ccc(Cl)cc1NC(=O)C1CC(=O)Nc2ncnn21 (stereo unspecified)	-0.2
COC(=O)CSC1=C(C#N)C(=O)NC2(CCCCC2)S1	-1.0
O=C(NCc1ccccc1)C1CCCN(S(=O)(=O)c2cccs2)C1 (stereo unspecified)	-0.9
CNC(=O)COC(=O)c1cc(-c2ccco2)nc2ccccc12	0.1
CC1CC(C)CN(C(=S)Nc2ccc3nc4n(c(=O)c3c2)CCCCC4)C1 (stereo unspecified)	-1.1
O=C(Cc1ccccc1)Nc1ccccc1C(=O)NCC1CCCO1 (stereo unspecified)	-2.9
O=C(CN1C(=O)CSc2ccc(S(=O)(=O)N3CCOCC3)cc21)N1CCCCC1	-0.4
Cc1ccc(N(CC(O)CON=C2c3ccccc3-c3ccccc32)S(C)(=O)=O)cc1 (stereo unspecified)	-1.5
Cc1csc(=O)n1CCC(=O)OCC(=O)c1ccc(Br)cc1	-0.4
Cc1ccccc1C(=O)Nc1ccnn1C1CCN(C2CCSCC2)CC1	2.4
